# Screens as filed in PubChem.
# TRPML1 blocker = inhibitors of human TRPML1 channel; TRPML1-inducible cells, Ca2+ dye fluorescence, FDSS; stronger effect = lower value; inhibition of EC80 agonist-evoked calcium signal; activity change, negative = inhibition, % (test concentration not listed); 0.02% of 390,000 active; in the data active means activity change below about -50%; inconclusive means about -30% to -50%; inactive means above about -30%;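 also: stimulus is agonist 54-4 at its EC80 concentration; % is scaled to controls: 0 for no effect and ±100 for the full control effect; compound concentration not given in the record; the text of the record puts the active cut at -80%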
# Target sequence (Q9GZU1 whole entry, looked up): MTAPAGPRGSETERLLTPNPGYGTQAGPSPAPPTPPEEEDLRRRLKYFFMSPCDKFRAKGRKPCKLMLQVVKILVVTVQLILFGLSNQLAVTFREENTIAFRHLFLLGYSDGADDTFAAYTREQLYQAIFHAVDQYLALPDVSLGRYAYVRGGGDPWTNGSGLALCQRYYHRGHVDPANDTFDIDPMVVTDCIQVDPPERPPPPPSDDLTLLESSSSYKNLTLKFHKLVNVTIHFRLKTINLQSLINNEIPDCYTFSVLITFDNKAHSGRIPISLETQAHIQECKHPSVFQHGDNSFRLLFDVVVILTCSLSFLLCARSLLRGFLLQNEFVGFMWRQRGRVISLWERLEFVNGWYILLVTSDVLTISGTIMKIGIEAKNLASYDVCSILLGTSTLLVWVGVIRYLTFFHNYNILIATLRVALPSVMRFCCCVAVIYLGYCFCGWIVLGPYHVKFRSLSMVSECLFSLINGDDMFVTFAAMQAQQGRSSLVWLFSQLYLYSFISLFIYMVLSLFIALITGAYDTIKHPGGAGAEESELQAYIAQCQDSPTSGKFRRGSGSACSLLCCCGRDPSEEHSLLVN
#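 TRPML1-DL cells, Tet-induced overnight (~16 h, 37 °C) at 1,500 cells/well, were loaded with Ca8 no-wash dye plus quencher for 45-90 min at room temperature. Compounds were pinned during FDSS kinetic reading; agonist 54-4 at EC80 (4 uM final) then added.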
# TRPML1 agonist = activates the human TRPML1 channel. Q9GZU1. TRPML1-expressing cells, Ca2+ dye fluorescence, FDSS; host cell line not named in the record; reference of the full effect not given here. activation, % (test concentration not listed). 0.12% of 410,000 active. AID 624414; in the data active = activation above about 50%; inconclusive = about 30% to 50%; inactive = below about 30%; also: 0% is about no effect; the text of the record puts the active cut at 80%
#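 Agonist activity was taken from a 110 s kinetic Ca2+ dye read on the FDSS after pinning compounds onto TRPML1-DL cells. The cells were seeded at 1,500/well with Tet inducer, incubated about 16 h, then dye-loaded at room temperature.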
# D2 PAM = positive allosteric modulators of human D2 dopamine receptor; AID 624464; potentiation, % (concentration not given with the values); 0.23% of 360,000 active; DiscoveRx D2 beta-arrestin cells, luminescence, 90 min; 100% = 57 uM dopamine signal; P14416; active = potentiation of 50% or more; inconclusive = 30% to 50%; inactive = 30% or less;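 also: compound concentration not given in the record; tested on top of an EC20 dose of dopamine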
# Target sequence (P14416 whole entry, looked up): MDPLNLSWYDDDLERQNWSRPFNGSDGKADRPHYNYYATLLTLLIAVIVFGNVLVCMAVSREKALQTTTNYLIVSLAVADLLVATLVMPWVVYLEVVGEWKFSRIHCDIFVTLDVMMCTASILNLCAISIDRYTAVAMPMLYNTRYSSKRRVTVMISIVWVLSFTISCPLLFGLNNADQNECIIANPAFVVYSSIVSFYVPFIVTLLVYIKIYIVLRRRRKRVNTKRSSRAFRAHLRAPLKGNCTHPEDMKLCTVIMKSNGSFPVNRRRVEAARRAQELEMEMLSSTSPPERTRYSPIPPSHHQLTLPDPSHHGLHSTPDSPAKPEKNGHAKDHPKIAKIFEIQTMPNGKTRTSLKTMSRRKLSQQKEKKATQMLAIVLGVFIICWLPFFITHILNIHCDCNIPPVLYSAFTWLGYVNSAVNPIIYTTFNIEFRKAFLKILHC
#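 PathHunter D2 cells, attached overnight at 37 deg C, received compound in DMSO plus dopamine at EC20 (50 nM final) for 90 min at 37 deg C. Beta-arrestin recruitment was read as luminescence after 1 h with detection reagent at ambient temperature.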
# D2 agonist = activates the human D2 dopamine receptor; P14416; DiscoveRx PathHunter D2 beta-arrestin, luminescence, 90 min; 100% = 57 uM dopamine signal; activation, % (no concentration beside the values); 0.084% of 360,000 active; in the data active = activation above about 40%; inconclusive = about 15% to 40%; inactive = below about 15%; also: compound concentration not given in the record; the text of the record calls up to 30% inactive
#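 Agonist mode: compounds alone added to overnight-plated D2 PathHunter cells for 90 min at 37 C, with 57 uM final dopamine (EC100) defining full response. Beta-arrestin recruitment detected by chemiluminescent reagent, read after 1 h at ambient temperature.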
# Six1-Eya2 inh = blocks human Six1 binding to Eya2; activity change, % (concentration not given with the values); AlphaScreen GST-Six1/His-Eya2 binding, biochemical; stronger effect = lower value; control for the full effect not named in the record; 0.56% of 360,000 active; Q15475+O00167; in the data active = activity change below about -65%; inconclusive = about -30% to -65%; inactive = above about -30%; also: % is scaled to controls: 0 for no effect and ±100 for the full control effect
#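 Homogeneous AlphaScreen proximity assay pairing GST-Six1 with His-tagged Eya2 (added as 5X mix: 250 nM and 500 nM) in 50 mM Tris pH 8.0, 300 mM NaCl, 1 mM TCEP. Glutathione donor and nickel acceptor beads; 1 h, 37 °C, dark.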
# PINK1 modulator = modulators of PINK1 expression | AID 624263 | Potency, µM (top dose mostly 76.6 µM), for the others: at the top dose activation (PINK1 increase), usual class: activators | PINK1 immunofluorescence, high-content cytometry, 24 h | 0.2% of 410,000 active; active = well fitted activation curve with a large enough effect; inconclusive = small, poorly fitted or top-dose-only effect; inactive = flat fitted curve, though single readings scatter; cell line not stated here;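 also: potency is read from the fitted curve at half-maximal effect; % of control where 0% means no effect; nearly all actives have a fitted effect of over 65% in size; a mitochondrial uncoupler was the plate control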
#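 Fluorescence from anti-PINK1 antibody, together with nuclear and cell stains, was scanned on a laser-scanning cytometer. Before staining, stable-line cells were incubated 24 hours with compounds at 5 concentrations; primary antibody 12 h at 10 degrees C.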
# Numbers without * were called inactive; ? = inconclusive; · = no result given; & = joins results of further samples; [ ] = another dose, or the depositor's remark. Rows were taken by chance. About 1% of those tested had a hit in this group.
SMILES,TRPML1 blocker,TRPML1 agonist,D2 PAM,D2 agonist,Six1-Eya2 inh,PINK1 modulator
O=C(N/C(=C\c1cccnc1)C(=O)N1CCOCC1)c1cccc(Br)c1,-19,0.4,-6,-2.1,0,0.7%
Cc1cc(C(=O)Nc2cccnc2)on1,31,0.3,-2,-5.5,5,-0.5%
CN(Cc1ccccc1Cl)C(=O)c1cnccc1C(F)(F)F,14,-0.1,-4,-6.4,-16,3.1%
COc1cccc(/C=N/N2CCN(C)CC2)c1,-9,0.1,-6,-2.5,9,7.9%
Cc1ccccc1NC(=S)NCc1ccc2[nH]c3c(c2c1)CCCC3,-6,-0.7,0,-6.1,-23,9.8%
COc1ccc(/C=N/NC(=O)c2ccccc2OCc2ccccc2)c(OC)c1,6,1.3,-5,3.4,-11,-1.1%
COc1ccc(NC(=S)N2CCC(C(=O)c3ccc(OC)cc3)CC2)cc1,4,0.8,-9,-1.3,-13,1.4%
CC(C)C(c1nnnn1CCc1ccccc1)N1CCOCC1 (configuration not stated),-10,-0.5,10,-2.0,10,1.3%
Cc1cc(C)c2c(CC(=O)O)c(C)[nH]c2c1,-11,0.4,-2,-5.0,-3,2.1%
O=C(CN1C(=O)COc2ccc(S(=O)(=O)N3CCCCCC3)cc21)NCCc1ccccc1,10,0.5,·,·,·,0.4%
O=C(CNC(=O)c1ccccc1F)NCCOc1ccccc1Cl,-1,1.7,-3,0.0,5,-0.9%
O=C(Nc1ccncc1)c1c(F)c(F)c(F)c(F)c1F,-10,1.1,-7,1.1,5,-1.0%
COc1ccc(C(=O)c2ccc(N3CCOCC3)cc2)c(OC)c1,1,0.6,-2,-3.2,-2,0.5%
c1cc(C2CCN(Cc3nc(-c4ccc5c(c4)OCO5)no3)CC2)ccn1,-18,0.7,-1,6.9,4,0.4%
Cc1ccc(NS(=O)(=O)c2c(C)nc3sc(C)c(C)n3c2=O)cc1F,-21,0.7,·,·,·,1.1%
COc1ccc(C(=O)OC2CCN(c3ncc(C(F)(F)F)cc3Cl)CC2)cc1,4,-0.9,-9,-3.2,0,0.6%
Cc1ccc(C=O)c([B-](F)(F)F)c1,-16,0.9,9,-1.6,6,-1.4%
Cc1nn(CCc2n[nH]c(=S)n2-c2cccc(Cl)c2)c(C)c1[N+](=O)[O-],-6,-0.2,-14,-4.3,0,6.5%[38.3 µM]
COc1ccc(/C=C2\Oc3cc(OCC(=O)N4CCC[C@H]4C(=O)O)ccc3C2=O)c(OC)c1,·,·,-40,-5.5,2,-0.1%
CCN(C(=O)CN1C(=O)NC2(CCCC2)C1=O)c1nc2c(C)cccc2s1,-5,-0.3,-7,0.4,-3,2.4%
O=C(O)CCCN(Cc1cccc(Br)c1)S(=O)(=O)c1ccc(Br)cc1,13,0.0,-7,-4.0,-1,-0.9%
Cc1ccccc1N1CCN(S(=O)(=O)c2ccc3oc(=O)ccc3c2)CC1,52,2.7,-5,-3.4,-6,-1.2%
Cc1ccc2nc(C)cc(N3CCOCC3)c2c1,5,-0.8,12,-2.7,7,5.1%
COc1ccc2c(c1OC)C(=O)N1C2SC(C)(C)[C@H]1C(=O)NCC(C)C (some centres not stated),·,·,-8,-7.8,3,1.1%
CN1CCN(CC#CC2(O)CCCCC2)CC1,27,0.9,-2,-0.3,4,·
NCCS(=O)(=O)NC1CCCCC1,0,-0.1,-2,-3.3,-1,0.4%
Oc1c(N=NC(=S)Nc2ccccc2F)c2ccccc2n1Cc1ccc(Cl)cc1,-5,-0.5,-10,1.6,2,1.1%
O=C(CSC1=NCCS1)Nc1nc2c(s1)CCCC2,-1,-0.3,-19,-4.2,-1,-4.1%
CC(=O)NC(c1ccc(F)c(F)c1)c1nc(-c2ccc(C)c(C)c2)cs1 (configuration not stated),·,0.0,-2,3.2,-5,10%
CC(Sc1ccccc1)C(=O)N1CCN(S(=O)(=O)c2ccccc2F)CC1 (configuration not stated),-13,0.7,-16,-6.7,0,-2.2%
CCOc1ccc(N(CC(=O)NCCCOC)S(C)(=O)=O)cc1,-4,-0.5,5,-1.8,1,2.4%
CCOC(=O)N1CCC(NC(=O)c2cccnc2SC)CC1,-6,-1.0,-12,-2.9,29,1.4%
Cc1cc(S(=O)(=O)C(CNC(=O)c2ccc(OC(C)C)cc2)c2cccs2)ccc1F (configuration not stated),-14,3.8,·,·,·,-1.1%
O=C1C2C3C=CC(C3)C2C(=O)N1c1n[nH]c(-c2cccnc2)n1 (configuration not stated),-17,0.5,-1,-0.2,2,6.2%[38.3 µM]
Cc1cccc(NC(=O)CSc2nnc3scc(-c4ccccc4)n23)c1,11,2.8,·,·,·,3.2%
COc1cccc(CNC(=O)CSc2nc3ccccc3nc2Cc2ccc(C)cc2)c1OC,-1,0.5,·,·,·,-0.9%
Cc1ccc(-n2nc3c(N4CCC(C(=O)NCCc5ccco5)CC4)nnc(C)c3c2C)cc1,10,-1.5,-16,-0.1,-7,9.3%
O=[N+]([O-])c1cc(-c2nc(-c3ccccc3)no2)ccc1N1CCCC1,21,-0.6,·,·,·,0.9%
CCCN1C(=O)c2ccccc2NC1c1ccc(O)c(OCC)c1 (configuration not stated),-21,2.3,-8,1.1,7,0.1%
CCC1CCCCN1CCCNC(=O)CN1C(=O)CSc2ccc(S(=O)(=O)N3CCC(C)CC3)cc21 (configuration not stated),38&14,0.3&0.7,-37,-2.1,-3,-0.4%&-0.6%
O=C(NC1CC1)C1CCC(=O)N1C1CCCC1 (configuration not stated),-7,0.4,-7,0.8,3,15%[38.3 µM]
CCOc1ccc(-c2nnc(SCC(=O)c3ccc(Br)cc3)n2-c2ccccc2)cc1,-11,1.6,·,·,·,4.5%
CN(CCc1ccccc1)C(=O)c1ccc(NC(=O)Cc2ccc(NC(=O)C3CCN(C(=O)C4CCC4)CC3)cc2)cc1,-11,-0.6,·,0.0,-7,2.5%
CSc1ccccc1OCc1cc(C(=O)N2CCc3sccc3C2)no1,42,1.3,-17,-0.2,-3,-1.8%
O=C(c1ccc(Cl)nc1)N1CCN(C/C=C/c2ccccc2)CC1,-6,0.3,-2,-1.8,-4,-0.5%
OC[C@@H]1CN(Cc2ccc(Cl)cc2)C[C@H](n2cnc3c(NCc4ccco4)ncnc32)O1,·,0.0,2,-2.2,-8,2.0%
CCOc1c(OC)ccc2c3c(c(=O)oc12)CCCC3,-19,1.3,0,0.1,4,-4.3%[38.3 µM]
COc1cc(/C=N/NC(=O)c2sc(N)c(C#N)c2C)ccc1O,-8,-0.6,16,3.4,-71*,0.6%
C[N+](C)(C)CC(O)CC(=O)O (configuration not stated),7,-0.6,2,0.4,4,1.1%
CCCN(CCC)CC(=O)N1CC(=O)Nc2ccccc21,0,-0.4,-15,0.4,-1,3.3%
CNC(=S)N1N=C(c2ccc(C)cc2)CC1c1ccc(Cl)cc1 (configuration not stated),-1,1.9,1,10,-4,-2.0%
COc1ccc(CCNC(=O)CCCOc2ccc(Cl)cc2)cc1OC,24,0.5,-2,-5.4,-5,-0.5%
O=C(Nc1ccc(Cl)c([N+](=O)[O-])c1)c1ccncc1,15,-0.4,-12,-5.5,-8,4.3%
Cc1ccc(-c2nn(-c3ccccc3)cc2C2SCC(=O)N2Cc2ccccc2)o1 (configuration not stated),15,2.2,-3,2.0,-21,3.3%
N#C/C(=C/c1ccc(O)c(O)c1)c1nc2ccccc2[nH]1,-6,9.1,-13,5.9,-15,6.6%
COc1ccccc1-c1nnc2sc(-c3cc4ccccc4o3)nn12,6,2.0,-1,-5.3,0,8.2%
COc1ccc(S(=O)(=O)Nc2ccc(S(=O)(=O)N(C)C)cc2)cc1[N+](=O)[O-],-11,0.3,-3,-1.3,-1,0.0%
COc1cc(C2C(C#N)=C(N)Oc3n[nH]c(-c4ccncc4)c32)cc(OC)c1OC (configuration not stated),3,-0.2,-9,-1.3,0,-1.1%
CC(C)c1ccc(NC(=O)Nc2nc(C(N)c3ccccc3Cl)cs2)cc1 (configuration not stated),·,0.1,-3,12,-5,-1.2%
Cc1ccc(/C=C/C(=O)OCC(=O)NC(=O)NCc2ccco2)cc1,8,0.8,-2,12,-3,0.6%

# Printed as active in Six1-Eya2 inh, of those listed so far:
SMILES | TRPML1 blocker | D2 PAM | D2 agonist | Six1-Eya2 inh | PINK1 modulator
COc1cc(/C=N/NC(=O)c2sc(N)c(C#N)c2C)ccc1O | -8 | 16 | 3.4 | -71* | 0.6%

# The listing continues:
SMILES,TRPML1 blocker,TRPML1 agonist,D2 PAM,D2 agonist,Six1-Eya2 inh,PINK1 modulator
CCCCCOc1ccc(C2c3c(oc4ccccc4c3=O)C(=O)N2c2nc(C)c(C)s2)cc1OCC (configuration not stated),-11,0.6,·,·,·,0.2%
CCCCc1nc(SCC(=O)N2CCOCC2)c2c(=O)n(C)c(=O)n(C)c2n1,-18,0.1,-14,-0.6,-7,1.3%
COCc1cc(C)c(C#N)c(=S)[nH]1,-12,-0.4,-2,-5.5,-4,-0.7%
COC(OC)C1Nc2ccccc2C(=O)N1c1ccc(F)cc1 (configuration not stated),-28,0.5,-5,-4.8,6,0.6%
COc1ccc(N2CCN(S(=O)(=O)CCNC(=O)C(c3ccccc3)c3ccccc3)CC2)cc1,-1,2.9,·,·,·,6.0%
O=C1NC(=S)N/C1=C/c1cc([N+](=O)[O-])ccc1O,3,2.1,-50,-9.4,-11,0.1%
CC(C(=O)OCC(=O)N1CCN(c2ccccc2)CC1)N1C(=O)c2ccccc2C1=O (configuration not stated),19,-0.5,-6,-1.4,7,-0.8%
N#Cc1ccccc1NC(=O)CN(Cc1ccccc1)Cc1ccccc1,7,4.0,-5,0.3,3,3.5%
O=C(O)c1ccc(CS(=O)(=O)Cc2ccccc2F)o1,3,-0.2,9,-1.4,4,-1.7%
O=C(c1ccco1)N1CCN(C(=O)N2c3ccccc3Sc3ccccc32)CC1,3,1.2,14,1.0,-4,·
Nc1c(C(=O)N/N=C/c2cccnc2)oc2nc(-c3ccccc3)cc(-c3ccco3)c12,7,0.6,12,?,-5,?
COc1ccc(C)cc1NC(=O)c1ccc(NC(=O)CC2SC(N3CCCC3)=NC2=O)cc1 (configuration not stated),7,-0.8,-13,-1.4,-1,14%
CCOc1cc2sc(N3CCC(C(=O)Nc4ccc(CC)cc4)CC3)nc2cc1Br,-9,-0.4,·,·,·,0.6%

# Exported with values under each structure: entries from further up
# The line under a structure holds: TRPML1 blocker	TRPML1 agonist	D2 PAM	D2 agonist	Six1-Eya2 inh	PINK1 modulator
- O=C(O)c1ccc(CS(=O)(=O)Cc2ccccc2F)o1
→ 3	-0.2	9	-1.4	4	-1.7%
- CCCCCOc1ccc(C2c3c(oc4ccccc4c3=O)C(=O)N2c2nc(C)c(C)s2)cc1OCC (configuration not stated)
→ -11	0.6	·	·	·	0.2%
